Screening data deposited in PubChem by Broad Institute.
rRNA inh HTS: inhibits bacterial ribosomal RNA function over humanized ribosomes; E. coli WT GFP vs humanized-ribosome RFP mutants, fluorescence, 24 h; hits give low values; DMSO median 0, no signal -100; GFP signal change (wild-type ribosome), % (concentration not given with the values); hit rate 1.6% among 350,000;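 active = significant combined selectivity score with lowered wild-type GFP, culture density cut under 30%, mutant RFP and density less affected; inactive = any of these conditions unmet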; also: one replicate is shown; some compounds called inactive have numbers as strong as hits
FGF22 binding: FGF22 (human) thermal shift binding; Q9HCT0; recombinant FGF22 thermal shift, SYPRO orange fluorescence; percent of sucrose octasulfate shift, DMSO zero; calls only at 9.99 µM; hit rate 1.5% among 340,000;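 active = melting point raised past a set limit in the mean and every replicate; three in four hits are not shown here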
Target sequence (Q9HCT0 whole entry, looked up): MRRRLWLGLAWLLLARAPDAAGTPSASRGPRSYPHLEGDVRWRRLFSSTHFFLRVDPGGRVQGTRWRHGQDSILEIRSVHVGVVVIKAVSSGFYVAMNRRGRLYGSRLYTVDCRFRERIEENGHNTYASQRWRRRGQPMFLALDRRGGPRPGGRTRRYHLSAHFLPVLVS
AF4-AF9 inh: inhibitors of human MLL-AF4/AF9 interaction. P42568. hit rate 0.47% among 350,000. inhibition, % at 10 µM. AID 651704. AlphaScreen, biotin-AF4 peptide binding to FLAG-AF9;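 active = every replicate reaching a set inhibition limit, whatever the replicate mean, cut at about 25% in these data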;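 also: 0% = plate neutral control median and 100% = total signal loss; the record names both 10 and 1 µM as test concentration; the first replicate is given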
Target sequence (P42568 whole entry, looked up): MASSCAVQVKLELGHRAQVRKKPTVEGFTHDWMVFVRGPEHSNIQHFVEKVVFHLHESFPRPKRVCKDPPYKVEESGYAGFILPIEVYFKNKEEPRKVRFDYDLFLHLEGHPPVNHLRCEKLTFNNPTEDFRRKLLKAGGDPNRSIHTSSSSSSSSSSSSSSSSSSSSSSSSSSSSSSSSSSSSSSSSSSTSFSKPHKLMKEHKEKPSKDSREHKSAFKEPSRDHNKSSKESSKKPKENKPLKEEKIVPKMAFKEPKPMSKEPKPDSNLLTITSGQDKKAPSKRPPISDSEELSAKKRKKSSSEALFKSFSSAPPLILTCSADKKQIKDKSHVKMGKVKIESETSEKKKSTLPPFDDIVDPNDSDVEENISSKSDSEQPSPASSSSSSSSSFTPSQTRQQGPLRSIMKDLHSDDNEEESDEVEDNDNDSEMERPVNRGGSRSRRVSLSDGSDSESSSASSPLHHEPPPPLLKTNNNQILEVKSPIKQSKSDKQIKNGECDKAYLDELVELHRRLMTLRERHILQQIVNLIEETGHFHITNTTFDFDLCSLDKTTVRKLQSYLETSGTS
rRNA inh HTS OD600: also measured in rRNA inh HTS; calls as there; OD600 change, %; measured here: OD600 growth;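 optical density of the mix in the first replicate; 0 = DMSO median and -100 = no signal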
rRNA inh HTS RFP: recorded beside rRNA inh HTS, whose call it bears; RFP signal change, %; measured here: RFP humanized mutant strains;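 first replicate; 0 = DMSO median and -100 = no signal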
* marks the source's active call; other numbers are inactive results; i = inactive. Not all compounds are listed; count on the stated rates, not on these rows.

Compound,rRNA inh HTS,rRNA inh HTS OD600,rRNA inh HTS RFP,FGF22 binding,AF4-AF9 inh
CC=Cc1ccc2n(c1=O)C[C@@H]1[C@@H](CO)[C@H](C(=O)NCC3CC3)[C@H]2N1CC1CCOCC1 (mixture of isomers),1,6,-1.3,i,-0.2
CN1CCN(C(=O)C[C@H]2C=C[C@@H](NS(=O)(=O)c3cccc(F)c3)[C@H](CO)O2)CC1,1,6,-0.3,i,-3.1
CCCNC(=O)Nc1ccc2c(c1)C(=O)N(C)[C@@H]1CC[C@@H](CC(=O)OC)O[C@H]1CO2,2,0,-4.0,i,-1.6
O=C(N=Nc1c(O)[nH]c2ccc(Br)cc12)c1ccco1,-6,-3,-1.6,i,1.2
CO[C@H]1CN(C)C(=O)c2cc(NC(=O)C3CC3)ccc2OC[C@H](C)N(Cc2ccccc2)C[C@@H]1C,-5,-16,0.8,i,-0.5
CC(C)NC(=O)N(C)C[C@@H]1OCCCC[C@@H](C)Oc2ccc(NS(=O)(=O)c3ccc(F)cc3)cc2C(=O)N([C@H](C)CO)C[C@@H]1C,-2,10,0.4,i,-2.5
Cc1noc(C)c1NC(=O)N(C)C[C@H]1Oc2c(NC(=O)c3cnccn3)cccc2C(=O)N([C@@H](C)CO)C[C@H]1C,4,10,0.0,i,-1.9
O=C(C[C@H]1CC[C@@H](NC(=O)Nc2ccc(F)cc2)[C@@H](CO)O1)NCc1ccccn1,4,12,-2.9,i,0.4
O=C(N[C@@H]1C=C[C@H](CC(=O)N2CCc3ccccc3C2)O[C@H]1CO)C1CCC1,-3,1,-1.2,i,-4.2
O=C(NCCN1CCC(n2c(=O)[nH]c3ccccc32)CC1)c1ccc(Cl)cc1,-3,-3,0.1,i,4.0
CC(C)NC(=O)Nc1ccc2c(c1)C(=O)N([C@@H](C)CO)C[C@@H](C)[C@H](CN(C)C)O2,0,6,-1.2,i,-0.4
Cc1cccc(NC(=O)Nc2nnc([C@@H]3C[C@H](O)[C@@H](CO)O3)s2)c1,1,8,-1.8,i,-4.3
Cc1cccc(S(=O)(=O)N2C[C@H](O)COC[C@@H]3O[C@@H](CC(=O)N4CCN(C)CC4)CC[C@H]32)c1,2,17,-3.6,i,-17
CCCN(C)C[C@H]1Oc2cc(-c3ccccc3F)ccc2S(=O)(=O)N([C@@H](C)CO)C[C@H]1C,1,3,-0.2,i,-1.1
C[C@@H]1CN([C@@H](C)CO)C(=O)c2cc(NC(=O)Nc3ccccc3)ccc2O[C@@H](C)CCCCO[C@H]1CN(C)Cc1ccncc1,-1,-9,1.7,i,3.9
CN(C)CC(=O)N[C@@H]1CC[C@H](CCn2cc(CN(C)C)nn2)O[C@@H]1CO,6,10,-1.5,i,-8.5
C[C@@H]1CN([C@H](C)CO)C(=O)c2cccc(NC(=O)Nc3ccccc3)c2O[C@@H]1CN(C)Cc1ccc(-c2ccccc2)cc1,-2,-12,3.8,i,2.2
O=C(C[C@@H]1CC[C@@H]2NC[C@@H](O)COC[C@H]2O1)NC1Cc2ccccc2C1,1,-6,-1.2,i,-0.5
CS(=O)(=O)c1cccc(C(=O)Nc2ccc(S(=O)(=O)N3CCCCC3)cc2)c1,0,2,0.2,i,-7.5
CCOC(=O)C1=CCN(S(=O)(=O)c2ccccc2)C1c1ccc(C)cc1 (configuration not stated),-24,-33,-2.9,i,0.4
C[C@@H]1CN([C@H](C)CO)C(=O)Cc2cc(NC(=O)C3CC3)ccc2O[C@@H]1CN(C)Cc1ccc2c(c1)OCO2,-2,1,1.5,i,-1.9
COc1ccc(S(=O)(=O)N(C)C[C@H]2Oc3ccc(NC(=O)CCN4CCOCC4)cc3C(=O)N([C@@H](C)CO)C[C@@H]2C)cc1,1,11,0.8,i,-3.3
COc1ccccc1-c1cnc2c(c1)C(=O)N([C@H](C)CO)C[C@@H](C)[C@H](CN(C)Cc1ccccc1)O2,1,-7,0.1,i,1.9
CC[C@]12c3[nH]c4ccc(Cl)cc4c3CCN1C(=O)[C@@H](CC(=O)NCCCOC)C[C@@H]2C(=O)N1CCN(C(=O)C2CC2)CC1,7,0,-7.9,i,0.2
Cc1ccc(S(=O)(=O)N(C)C[C@H]2OCCCC[C@@H](C)Oc3ccc(NS(C)(=O)=O)cc3C(=O)N([C@H](C)CO)C[C@@H]2C)cc1,-2,2,0.9,i,-1.7

3 entries from above, with each value named.
compound: COc1ccc(S(=O)(=O)N(C)C[C@H]2Oc3ccc(NC(=O)CCN4CCOCC4)cc3C(=O)N([C@@H](C)CO)C[C@@H]2C)cc1
  rRNA inh HTS = 1	rRNA inh HTS OD600 = 11	rRNA inh HTS RFP = 0.8	FGF22 binding = i	AF4-AF9 inh = -3.3
compound: Cc1cccc(NC(=O)Nc2nnc([C@@H]3C[C@H](O)[C@@H](CO)O3)s2)c1
  rRNA inh HTS = 1	rRNA inh HTS OD600 = 8	rRNA inh HTS RFP = -1.8	FGF22 binding = i	AF4-AF9 inh = -4.3
compound: C[C@@H]1CN([C@@H](C)CO)C(=O)c2cc(NC(=O)Nc3ccccc3)ccc2O[C@@H](C)CCCCO[C@H]1CN(C)Cc1ccncc1
  rRNA inh HTS = -1	rRNA inh HTS OD600 = -9	rRNA inh HTS RFP = 1.7	FGF22 binding = i	AF4-AF9 inh = 3.9

Further structures follow:
Compound,rRNA inh HTS,rRNA inh HTS OD600,rRNA inh HTS RFP,FGF22 binding,AF4-AF9 inh
N#C[C@@H]1[C@H](c2ccccc2)[C@H](CO)N1C(=O)CCN1CCCCC1,6,3,-2.2,i,-0.3
Cc1noc(C)c1S(=O)(=O)Nc1ccc2c(c1)CC(=O)N([C@@H](C)CO)C[C@H](C)[C@H](CN(C)Cc1ccc(-c3ccccc3)cc1)O2,0,1,2.2,i,5.1
C[C@@H]1CN([C@@H](C)CO)C(=O)c2cc(-c3ccccc3)cnc2O[C@H]1CN(C)C(=O)Cc1ccccc1,0,4,0.7,i,0.6
CO[C@@H]1CN(C)C(=O)c2cc(NC(=O)c3cc(C)on3)ccc2OC[C@H](C)NC[C@H]1C,5,9,-1.1,i,-2.8
COc1ccc2c3c(n(C)c2c1)[C@H](CO)N(C(=O)Cc1ccccn1)CC31CN(C)C1,6,14,-1.3,i,-0.7
CC(C)C#Cc1cnc2c(c1)C(=O)N([C@@H](C)CO)C[C@H](C)[C@@H](CN(C)C(=O)Nc1cc(F)ccc1F)O2,1,2,0.1,i,1.4
CCc1cnc(N2[C@H](CO)[C@H](c3ccc(C4=CCCCC4)cc3)[C@@H]2C#N)s1,-7,-30,-4.2,i,-0.1
CN1c2ccc(C#Cc3cccnc3)cc2[C@H]2[C@H](CCN2C(=O)C2CC2)[C@@H]1CO,-1,2,-0.7,i,-2.6
C[C@H]1CCCCO[C@@H](CN(C)S(=O)(=O)c2cn(C)cn2)[C@@H](C)CN([C@@H](C)CO)C(=O)c2cc(NS(=O)(=O)c3cn(C)cn3)ccc2O1,0,4,-0.5,i,-12
CO[C@@H](CN(C)S(=O)(=O)c1ccc(Cl)cc1)[C@@H](C)CN([C@@H](C)CO)S(=O)(=O)c1cccc(Cl)c1,-4,-48,21,i,0.0
C[C@H]1CN([C@@H](C)CO)C(=O)c2cccc(NC(=O)Nc3ccc4c(c3)OCO4)c2O[C@H]1CN(C)Cc1ccc2c(c1)OCO2,2,1,0.0,i,6.0
COc1ccc2c3c(n(C)c2c1)[C@H](CO)N(S(C)(=O)=O)CC31CN(C(=O)C2CCC2)C1,1,0,0.6,i,0.5
CCCC#Cc1ccc2c(c1)O[C@@H](CN(C)Cc1cncnc1)[C@@H](C)CN([C@H](C)CO)S2(=O)=O,-11,-12,2.9,i,3.2
O=C([C@@H]1[C@@H](CO)[C@@H]2Cn3c(cccc3=O)[C@H]1N2S(=O)(=O)c1ccccc1F)N1CCCCC1,-2,5,1.2,i,0.1
CO[C@@H]1CN(C)C(=O)c2cc(NC(C)=O)ccc2OC[C@@H](C)N(Cc2ccncc2)C[C@@H]1C,-3,2,-1.3,i,-2.2
CC(C)C(=O)N1CCCC1(C)C(=O)Nc1ccc(-n2cncn2)cc1 (configuration not stated),15,14,-0.5,i,-5.8
CO[C@H]1CN(C)C(=O)c2cc(NC(=O)Nc3ccc(C(F)(F)F)cc3)ccc2OC[C@@H](C)NC[C@H]1C,-38,-66,40,i,6.5
COc1ccccc1NC(=O)N(C)C[C@H]1OCc2ccccc2-c2c(n(C)c3ccccc23)C(=O)N([C@@H](C)CO)C[C@H]1C,3,1,1.5,i,2.8
CC(C)CNC(=O)C1(C)CCCCCN1C(=O)c1cc2ccccc2s1 (configuration not stated),-7,-16,0.6,i,-3.3
C/C=C/c1cnc2c(c1)C(=O)N([C@H](C)CO)C[C@H](C)[C@H](CN(C)S(=O)(=O)c1ccccc1F)O2,0,-9,-2.8,i,-7.0
CCC(=O)N1C[C@@H](C)[C@@H](OC)CN(C)C(=O)c2ccc(NC(=O)Nc3cccc(F)c3)cc2OC[C@H]1C,-4,0,5.3,i,2.9
COc1cc(OC)cc(C2=Cc3ccccc3C(CC(=O)c3ccco3)N2c2ccc(-c3cnc(OC)nc3)cc2)c1 (configuration not stated),-5,1,6.0,i,1.3
Cc1ccc(S(=O)(=O)Nc2ccc3c(c2)C(=O)N([C@H](C)CO)C[C@@H](C)[C@H](CN(C)Cc2ccccc2)O3)cc1,-1,-8,-2.0,i,-0.1
COc1ccccc1NC(=O)N[C@H]1CC[C@H](CC(=O)N[C@H](C)c2ccccc2)O[C@@H]1CO,-2,-4,-0.2,i,-3.0
COc1ccc(CN(C)C[C@@H]2OCCCC[C@@H](C)Oc3ccc(NC(=O)C4CCCCC4)cc3C(=O)N([C@@H](C)CO)C[C@@H]2C)cc1,5,-5,0.2,i,1.1

Nothing new here: two of the compounds above.
Compound,rRNA inh HTS,rRNA inh HTS OD600,rRNA inh HTS RFP,FGF22 binding,AF4-AF9 inh
N#C[C@@H]1[C@H](c2ccccc2)[C@H](CO)N1C(=O)CCN1CCCCC1,6,3,-2.2,i,-0.3
Cc1noc(C)c1S(=O)(=O)Nc1ccc2c(c1)CC(=O)N([C@@H](C)CO)C[C@H](C)[C@H](CN(C)Cc1ccc(-c3ccccc3)cc1)O2,0,1,2.2,i,5.1

Going on with the list.
Compound,rRNA inh HTS,rRNA inh HTS OD600,rRNA inh HTS RFP,FGF22 binding,AF4-AF9 inh
COc1ccc(NC(=O)N[C@H]2CC[C@@H](CC(=O)NC3CCCCC3)O[C@@H]2CO)cc1,-1,-6,1.4,i,0.7
CC1CCN(c2nc3c(c(=O)[nH]c(=O)n3C)n2CCSc2ncccn2)CC1,4,13,-1.3,i,-3.5
O=C(C[C@H]1C[C@H]2c3cc(NC(=O)CC4CC4)ccc3O[C@H]2[C@@H](CO)O1)NCc1cccc(F)c1,-1,-2,-0.6,i,-2.4
CC(C)c1cccc(-c2csc(C(C)(O)c3ccc(F)c(F)c3)n2)c1 (configuration not stated),-4,-20,4.9,i,-1.7
Cc1cc(C)cc(Cn2cc(CN3CC(N(C)C)CS3(=O)=O)nn2)c1 (configuration not stated),6,7,-5.6,i,0.4
C[C@@H]1CN([C@@H](C)CO)S(=O)(=O)c2ccc(C#Cc3ccc(F)cc3)cc2O[C@H]1CN(C)C(=O)c1ccccn1,-5,-29,-1.0,i,0.9
C[C@@H]1CN([C@@H](C)CO)C(=O)Cc2cc(NS(=O)(=O)c3ccc(Cl)cc3)ccc2O[C@@H]1CN(C)S(=O)(=O)c1cccs1,-1,3,0.0,i,2.1
Cc1ccc(S(=O)(=O)N2[C@H](c3cccc(Cl)c3)CC(=O)[C@@H]3CN(S(=O)(=O)c4ccccc4C)[C@H](c4ccc(Cl)cc4)C[C@@H]32)cc1,8,14,0.2,i,-2.4
CC(C)NC(=O)Nc1ccc2c(c1)C(=O)N([C@H](C)CO)C[C@H](C)[C@H](CN(C)CC1CCCCC1)OCCCC[C@@H](C)O2,3,6,-0.9,i,-7.2
COCCNC(=O)C[C@@H]1C[C@@H]2c3cc(NC(=O)Nc4ccc(OC)cc4)ccc3O[C@@H]2[C@H](CO)O1,2,2,-2.6,i,-8.6
CC1=C(C(=O)N2CCOCC2)CC(CC(=O)NC2CCCCC2)C(=O)N1CCCN1CCCC1=O (configuration not stated),23,13,6.2,i,-4.8
CC(C)NC(=O)Nc1ccc2c(c1)CC(=O)N([C@@H](C)CO)C[C@@H](C)[C@@H](CN(C)C(=O)Nc1cccc3ccccc13)O2,-1,10,1.0,i,-2.1
CC(C)C1C(=O)N(Cc2cn(CCC3OCCO3)nn2)CCS(=O)(=O)N1Cc1ccc(-c2cccc(CO)c2)cc1 (configuration not stated),-6,-11,2.7,i,2.4
CN(C)c1ccc(C(=O)NCC2CCN(C(=O)C(=O)c3cccs3)CC2)cc1,4,13,4.8,i,-6.7
N#C[C@H]1[C@H](c2ccc(C#CC3CC3)cc2)[C@H](CO)N1S(=O)(=O)c1ccccc1,0,0,0.3,i,0.2
C[C@@H]1CN([C@@H](C)CO)C(=O)c2cc(C3=CCCCC3)cnc2O[C@H]1CN(C)C(=O)Cc1ccccc1,-9,-11,0.4,i,-0.5
CC(C)C#Cc1ccc([C@H]2[C@@H](CO)N3C(=O)CN(S(=O)(=O)c4ccccc4)C[C@@H]23)cc1,-12,-45,5.1,i,-0.2
C[C@H]1CN([C@@H](C)CO)C(=O)c2cc(NC(=O)Cc3cn(C)c4ccccc34)ccc2O[C@H]1CN(C)S(=O)(=O)c1cccs1,-3,-4,1.9,i,0.2
